# High-throughput results: PubChem, several laboratories
# RN4220 kill: S. aureus RN4220 growth inhibition; OD600, 16 h; inhibition, % (test concentration not listed); 330,000 compounds, 0.33% hits; AID 1259311;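 active = z-score of -3 or lower and OD600 up to 0.18 on both plates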;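 also: plate controls were untreated cells for no effect and reference antibiotic for full effect; stock transfer was 100 nL into about 80 µL; one replicate is shown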
# Bead autofluor: flagged as autofluorescent in microsphere protease counterscreen | compound autofluorescence counterscreen, microsphere flow cytometry; active compounds read high | fluorescence intensity (concentration not given with the values) | 360,000 compounds, 3.1% hits;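 active = at least 3 SD above the mean of all compounds, about 16000 in these data; inconclusive = too few beads counted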;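 also: 100 nL of 1 mM stock went into each well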
# Mtb hypoxia inh: inhibitors of hypoxia-regulated fluorescent reporter in Mycobacterium tuberculosis; M. tuberculosis hypoxia-regulated fluorescent reporter, fluorescence; fluorescence inhibition, % (concentration not given with the values); 300,000 compounds, 0.1% hits; AID 1159583;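 active = 35 to 45% if threefold the growth effect, above 45% if 1.5-fold the growth effect; inactive = the rest, general growth blockers included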;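 also: wells of about 50 µL received 100 nL stock; 0% = vehicle wells and 100% = reference inhibitor wells; whole bacteria with a GFP reporter of the hypoxia response; strong numbers were not always called active; many hits fall short of the cut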
# BJeLR viability: kills HRASV12-expressing BJeLR cells; BJeLR (HRASV12) viability, CellTiter-Glo ATP luminescence, 48 h; reference of the scale not given here; inhibition, % (test concentration not listed); 300,000 compounds, 0.17% hits; AID 1554;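 active = replicate mean above 50%; inconclusive = above 50% but judged a plate artefact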;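 also: 50 nL library stock added to about 25 µL; numbers are from one replicate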
# PrP 5UTR inh: suppresses PrP 5' UTR mRNA reporter expression. cell-based PrP 5' UTR mRNA reporter, plate reader. inhibition, % (no concentration beside the values). 340,000 compounds, 0.35% hits;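 active = every replicate at 50% or more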;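 also: 0 = median of the neutral control wells; tested in H4 reporter cells; numbers are from one replicate; inactives centre near -14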
# Sa ugtP lethal: compounds lethal to S. aureus RN4220 ugtP deletion mutant | growth inhibition, % (test concentration not listed) | 330,000 compounds, 0.54% hits | OD600 growth, 16 h; some inactives read as strong as hits;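 active = z-score under -3 and OD600 up to 0.15 on both plates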;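 also: plate controls were untreated wells for no effect and antibiotic for full effect; wells of about 80 µL received 100 nL stock; the first replicate is given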
# Mtb hypoxia inh growth: further read-out of Mtb hypoxia inh, marked with its call; growth inhibition, %; measured here: M. tuberculosis growth (absorbance);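 0% = vehicle and 100% = reference antibiotic; read after six days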
# Numbers without * were called inactive; ? = inconclusive; nt = no result given.
SMILES,RN4220 kill,Bead autofluor,Mtb hypoxia inh,Mtb hypoxia inh growth,BJeLR viability,PrP 5UTR inh,Sa ugtP lethal
CN1CCCC(OC(=O)c2ccc(C#N)cc2)C1 (stereo not drawn),0.2,3102,-1,2,10,-13,4
CCOc1ccc(C(=O)NCCN(C)C)cc1,2.8,11156,1,0,-6,-11,4
CC(=NNC(=O)CC1C(=O)NN=C1C)c1ccco1 (stereo not drawn),1.3,nt,4,2,nt,nt,1
Cc1cc(=O)[nH]c(CCl)n1,4.2,5086,13,7,-11,-44,4
O=C(Nc1ccccc1)Nc1n[nH]c2nnc(-c3ccccc3)c(-c3ccccc3)c12,7.6,4249,4,8,2,2,-6
N#Cc1ccccc1COC(=O)c1ccc2c(c1)OCO2,1.0,3982,0,-11,nt,-36,-1
CN1C(=O)CSC1=Nc1ccc(Br)cc1,3.9,3101,4,0,4,-11,6
O=C(NCCO)c1cc2ccccc2c(=O)s1,-3.6,4753,nt,nt,0,-26,-6
O=C(NCCc1ccccc1)C(=O)NN=C1CCCC1,-0.1,3799,-7,-13,-20,-40,3
CN(C)c1ccc(C(C(=O)NC(C)(C)C)N(C(=O)c2csnn2)C2CC2)cc1 (stereo not drawn),6.2,6008,0,10,-2,-19,-11
COc1ccc(NC(=O)CSCC(=O)Nc2cccc3ncccc23)cc1,-0.1,5976,-4,2,-7,8,-1
CC(=O)OC1C2C(CC(C)C3C=CC(=O)[C@]31C)OC(=O)C2C (stereo partly drawn),7.6,nt,15,6,nt,nt,8
CCOc1cc(N2CCOCC2)c(OCC)cc1NC(=O)c1ccc(S(C)(=O)=O)cc1,9.3,4417,14,6,1,-3,4
Cc1ccc(/C=N/NS(=O)(=O)c2ccc([N+](=O)[O-])cc2)o1,nt,1924,nt,nt,12,11,nt
O=C(CN1CCN(C(=O)c2ccccc2)CC1)Nc1ncc(Br)cc1Br,1.0,2145,nt,nt,8,-3,-1
CCc1nnc(NC(=O)CN2C(=O)/C(=C/c3cc(OC)c(OC)c(OC)c3)SC2=S)s1,5.1,2483,8,-3,1,-20,-3
CCc1ccc(NC(=O)CSCCO)cc1,7.1,10666,-2,3,-4,-11,14
CCOC(=O)CSc1nc2ccccc2c(=O)n1C,-13,3361,22,4,0,4,-7
COc1cc(NC(=O)CNc2cccc(S(=O)(=O)N3CCOCC3)c2)cc(OC)c1,-1.4,?,-1,-3,nt,-18,10
COc1ccc(C2CC(c3ccccc3)=NN2C(=O)CSc2nccc(=O)[nH]2)cc1 (stereo not drawn),8.0,9258,1,-4,-1,-6,-10
CCc1ccc(C(=O)NC(C(=O)O)C(C)C)cc1 (stereo not drawn),5.2,10394,0,6,3,-20,4
COc1ccc(C(=O)NNC(=O)CCc2nc3ccccc3c(=O)[nH]2)cc1,5.6,3953,11,1,nt,-20,9
Cn1c(=O)[nH]c(=O)c2c1nc(SCCN1CCOCC1)n2CCCc1ccccc1,-2.0,5508,2,-1,-5,1,10
CN(C(=O)COC(=O)C1CCN(S(=O)(=O)c2ccc3c(c2)OCCO3)CC1)C1CCCCC1,0.3,5738,5,2,2,-8,0
CCOc1ccccc1N1CCN(C(=O)NCc2ccc(C)cc2)CC1,2.0,5485,-6,7,-3,-17,11
# Next records follow:
SMILES,RN4220 kill,Bead autofluor,Mtb hypoxia inh,Mtb hypoxia inh growth,BJeLR viability,PrP 5UTR inh,Sa ugtP lethal
O=C(CSc1nc2ccccc2c(=O)n1-c1ccccc1)N1CCC1,-1.0,4212,0,7,-8,-76,-16
CCC1Nc2ncnc(N3CCN(c4ccccc4)CC3)c2N(Cc2ccc(Cl)cc2)C1=O (stereo not drawn),-5.7,2942,13,6,1,-18,-17
CC(=O)N(CCN(C)C)c1nc2cc3c(cc2s1)OCCO3,4.0,4398,-1,-8,-10,-25,9
CCOC(=O)N1CCN(CC(O)COc2cc(C)ccc2C(C)C)CC1 (stereo not drawn),1.9,2555,-2,9,2,-14,10
CC(C)OC(=O)CN1C(=O)c2ccccc2C1=O,1.5,3248,-1,4,3,-8,-6
CCNC(=S)N1CC(C)OC(C)C1 (stereo not drawn),4.9,5128,10,11,0,-38,5
CCCOc1ccc(N2C(=O)C3C(C(C)C)NC4(C(=O)c5ccccc5C4=O)C3C2=O)cc1 (stereo not drawn),1.4,6080,0,2,-3,-24,-3
CCCCCN=C(N)NN=Cc1c[nH]c2ccc(OC)cc12,3.4,nt,-1,4,nt,nt,-31
CSc1ccc(Cn2nnc(C(=O)Nc3ccc(C)c(C)c3)c2N)cc1,3.7,4470,nt,nt,-4,-25,10
CN(C)S(=O)(=O)c1ccc2oc(SCC(=O)Nc3ccccc3F)nc2c1,2.5,4517,6,-1,21,-80,4
C[C@@]12C(=O)Nc3ccc(Br)cc3C(=O)N1C1c3cc(Cl)ccc3OCC1C2c1ccccc1 (stereo partly drawn),-4.1,nt,-5,3,nt,nt,-17
O=C(O)c1ccc(COc2cccc(CO)c2)cc1,5.7,9529,2,4,9,-24,6
CCc1ccccc1S(=O)(=O)c1c(C)cc(C)nc1Cl,10,3761,16,5,5,1,11
Oc1ccc(C=NNC(=S)Nc2cccnc2)c(O)c1,3.6,nt,20,2,nt,nt,-11
CCSc1nc(C)cc(C)c1S(=O)(=O)c1ccccc1C,9.8,2371,nt,nt,8,-5,9
COc1ccc(OC)c(NC(=O)C2CC(=O)n3ncnc3N2)c1 (stereo not drawn),4.3,4501,10,8,-2,-4,7
COc1ccc(CC(=O)Nc2ccc(S(=O)(=O)N3CCN(C)CC3)cc2)cc1,1.9,3426,7,-2,nt,-7,2
COc1ccc(CNC(=O)CN(c2ccc(OC)cc2)S(=O)(=O)c2c(C)[nH]c(=O)[nH]c2=O)cc1,2.3,5180,9,10,-6,-9,3
CN(Cc1cn(C)nc1-c1ccccc1F)CC1CCCCO1 (stereo not drawn),3.3,4670,7,8,-1,2,9
CC1=CN2C(=N)/C(=C/c3ccc([N+](=O)[O-])o3)C(=O)N=C2S1,8.9,3294,1,7,17,-17,35
CCOC(=O)c1cc(NC(=O)Nc2ccccc2OC)c(C)nc1C,-0.8,3103,nt,nt,-10,-4,-5
CN1CCN(C(=O)CC2(CC(=O)O)CCCC2)CC1,1.7,4269,4,5,-4,-17,0
O=C(CCn1cnc2ccccc2c1=O)Nc1nc2c(s1)CCCC2,0.4,3897,nt,nt,6,0,0
COc1ccc(C(=O)CCC(=O)N2CCN(c3cc(C)ccc3C)CC2)cc1,0.1,5300,-6,8,4,-11,2
FC(F)(F)c1cnc(Sc2nc3nccc(-c4ccc(Cl)cc4)n3n2)c(Cl)c1,7.6,20640*,6,9,-15,-2,-11

# Arranged by count of non-hydrogen atoms (largest number first): some entries from above.
SMILES,RN4220 kill,Bead autofluor,Mtb hypoxia inh,Mtb hypoxia inh growth,BJeLR viability,PrP 5UTR inh,Sa ugtP lethal
CCOc1cc(N2CCOCC2)c(OCC)cc1NC(=O)c1ccc(S(C)(=O)=O)cc1,9.3,4417,14,6,1,-3,4
CSc1ccc(Cn2nnc(C(=O)Nc3ccc(C)c(C)c3)c2N)cc1,3.7,4470,nt,nt,-4,-25,10
CCc1ccc(C(=O)NC(C(=O)O)C(C)C)cc1 (stereo not drawn),5.2,10394,0,6,3,-20,4

# The results go on:
SMILES,RN4220 kill,Bead autofluor,Mtb hypoxia inh,Mtb hypoxia inh growth,BJeLR viability,PrP 5UTR inh,Sa ugtP lethal
Cc1ccc(S(=O)(=O)NC2CC(C)(C)NC(C)(C)C2)c(C)c1C,1.6,3288,11,5,3,-17,8
CSCCNC(=O)c1ccc(OC2CCN(CCc3ccccc3)CC2)cc1,1.7,3506,-1,13,1,-35,2
Cc1cc2c(cc1C)C(c1cc(Br)ccc1F)CC(=O)N2 (stereo not drawn),6.1,2530,10,-3,12,-28,-3
O=C(NC(c1ccccc1)c1ccccc1)c1ccc(S(=O)(=O)C(F)F)cc1,0.3,4776,nt,nt,5,-8,-1
COc1ccc(C2C(C#N)=C(N)N(c3ccccc3C#N)C3=C2C(=O)CCC3)cc1CN1CCCC1 (stereo not drawn),6.8,2611,0,-3,9,-6,8
CCOC(=O)N1CCC(N(CCOC)C(=O)Nc2ccc(Cl)cc2)CC1,0.5,11161,14,5,-4,-27,-4
COCCN(C(=O)c1cc2c(s1)CCCCC2)c1c(N)n(Cc2ccccc2)c(=O)[nH]c1=O,5.4,5297,5,-3,-7,-24,-1
CCOc1ccccc1O[C@H](c1ccccc1)[C@H]1CNCCO1,nt,5818,nt,nt,-4,-20,nt
CCOC(=O)/C(=C\C=C1/Sc2ccccc2N1CC)C(C)=O,nt,12358,nt,nt,-10,5,nt
Cn1c(=O)c2c(nc(N/N=C/c3cccs3)n2C)n(C)c1=O,nt,4456,nt,nt,7,-18,nt
COc1cccc(-c2nnc(NC(C)=O)o2)c1,-0.2,6051,-4,12,-1,-18,2
Cc1ccc(S(=O)(=O)N(C)CC(=O)NCCCn2ccnc2)cc1,4.6,3630,1,9,-6,-18,14
O=[N+]([O-])c1ccc(/C=C/c2nc3ccc([N+](=O)[O-])cc3[nH]2)cc1,6.7,2944,-1,8,-1,-55,-6
Cc1nn(CC(=O)N(C)Cc2ccccc2)c(=O)c2cccn12,2.2,5557,1,3,-4,-5,3
CCC(C)(C)NC(=O)CN(Cc1ccc(F)cc1)C(=O)CCC(=O)Nc1ccccn1,-2.4,6045,-7,-1,-19,-32,3
CC1CC(C)CN(C(=O)/C(=C\c2ccccc2)c2ccccc2)C1 (stereo not drawn),7.7,1873,-6,4,-16,-2,1
C=CCNC(=O)C1CCN(C(=O)c2ccc(-c3ccccc3)cc2)CC1,5.2,4372,-1,5,11,60*,5
COc1cccc(NC(=O)CN(C)CC(=O)c2c(C)[nH]c3ccccc23)c1,3.1,3566,10,8,nt,-7,-2
CSc1cccc(NC(=O)c2nnn(CC(=O)Nc3cc(C)cc(C)c3)c2N)c1,6.3,5759,0,-5,6,-33,-3

# Gathered by group: the compounds so far containing a halogen.
SMILES,RN4220 kill,Bead autofluor,Mtb hypoxia inh,Mtb hypoxia inh growth,BJeLR viability,PrP 5UTR inh,Sa ugtP lethal
Cc1cc(=O)[nH]c(CCl)n1,4.2,5086,13,7,-11,-44,4
CN1C(=O)CSC1=Nc1ccc(Br)cc1,3.9,3101,4,0,4,-11,6
O=C(CN1CCN(C(=O)c2ccccc2)CC1)Nc1ncc(Br)cc1Br,1.0,2145,nt,nt,8,-3,-1
CCC1Nc2ncnc(N3CCN(c4ccccc4)CC3)c2N(Cc2ccc(Cl)cc2)C1=O (stereo not drawn),-5.7,2942,13,6,1,-18,-17
CN(C)S(=O)(=O)c1ccc2oc(SCC(=O)Nc3ccccc3F)nc2c1,2.5,4517,6,-1,21,-80,4
C[C@@]12C(=O)Nc3ccc(Br)cc3C(=O)N1C1c3cc(Cl)ccc3OCC1C2c1ccccc1 (stereo partly drawn),-4.1,nt,-5,3,nt,nt,-17
CCc1ccccc1S(=O)(=O)c1c(C)cc(C)nc1Cl,10,3761,16,5,5,1,11
CN(Cc1cn(C)nc1-c1ccccc1F)CC1CCCCO1 (stereo not drawn),3.3,4670,7,8,-1,2,9
FC(F)(F)c1cnc(Sc2nc3nccc(-c4ccc(Cl)cc4)n3n2)c(Cl)c1,7.6,20640*,6,9,-15,-2,-11
Cc1cc2c(cc1C)C(c1cc(Br)ccc1F)CC(=O)N2 (stereo not drawn),6.1,2530,10,-3,12,-28,-3
O=C(NC(c1ccccc1)c1ccccc1)c1ccc(S(=O)(=O)C(F)F)cc1,0.3,4776,nt,nt,5,-8,-1
CCOC(=O)N1CCC(N(CCOC)C(=O)Nc2ccc(Cl)cc2)CC1,0.5,11161,14,5,-4,-27,-4
CCC(C)(C)NC(=O)CN(Cc1ccc(F)cc1)C(=O)CCC(=O)Nc1ccccn1,-2.4,6045,-7,-1,-19,-32,3
